HSV replic up: increases HSV replication in cells; maximum fold increase; 220,000 compounds, 0.005% hits; HSV replication augmentation in cells, fold increase;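 active = peak rise of 1.5-fold or more in the series; inconclusive = self-fluorescent or not available for retest; tested in PC3 cells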;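 note: first round at 10 µM; read as green reporter fluorescence; hits show the peak of a series up to 25 µM; 1 = signal of infected wells without compound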
Insulin prom inh: TRM-6 insulin promoter activity inhibition. inhibition, % at 2 µM. AID 1273. 130,000 compounds, 0.9% hits. TRM-6 cells (human fetal islet line), insulin promoter-eGFP reporter, imaging; reporter expression induced with tamoxifen;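 active = inhibition above the mean plus 3 SD, with well images judged a real hit on visual review, cut at about 60% in these data, passing the limit was not always enough; inconclusive = inhibition over the cutoff but images rejected on review; inactive = inhibition not above the cutoff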
GALR2 agonist: activates the human galanin receptor 2 | GALR2-expressing cells, agonist activation read-out | activation, %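 (tested at 5 µM)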 | O43603 | 140,000 compounds, 0.48% hits | AID 803;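 active = above mean plus 3 SD of all compounds, about 5% in these data, not always enough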;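 note: 0% = vehicle buffer wells and 100% = reference agonist at full effect; tested in CHO reporter cells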
Target sequence (O43603 whole entry, looked up): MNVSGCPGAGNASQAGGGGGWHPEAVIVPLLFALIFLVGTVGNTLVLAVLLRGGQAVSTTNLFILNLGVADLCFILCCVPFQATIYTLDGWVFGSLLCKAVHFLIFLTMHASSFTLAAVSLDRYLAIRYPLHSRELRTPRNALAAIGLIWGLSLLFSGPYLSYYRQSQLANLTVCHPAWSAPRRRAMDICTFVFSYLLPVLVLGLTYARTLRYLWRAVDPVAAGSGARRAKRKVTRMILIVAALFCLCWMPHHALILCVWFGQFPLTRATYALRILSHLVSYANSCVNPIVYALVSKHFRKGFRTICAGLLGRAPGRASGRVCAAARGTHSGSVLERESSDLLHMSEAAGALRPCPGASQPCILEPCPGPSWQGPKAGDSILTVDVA
RGS16-Gao HTS: RGS16-Galphao interaction regulator (human); bead-based flow cytometry RGS16-Galphao binding, fluorescence; actives lie on both sides; 220,000 compounds, 0.38% hits; binding response (% of control), % at 10 µM; O15492+P09471;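 active = below 25% or above 175%, edge rows of some plates excepted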;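 note: Galphao activated by GDP with aluminum fluoride before binding; 100% = wells without compound and 0% = beads without RGS; some results beyond the cut were filed as inactive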
Target sequence (O15492 whole entry, looked up): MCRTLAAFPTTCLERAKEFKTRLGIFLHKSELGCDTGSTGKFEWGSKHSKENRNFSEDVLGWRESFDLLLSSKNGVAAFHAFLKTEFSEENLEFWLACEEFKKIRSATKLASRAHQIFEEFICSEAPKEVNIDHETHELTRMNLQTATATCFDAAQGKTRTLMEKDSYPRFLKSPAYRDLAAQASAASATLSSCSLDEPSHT
Target sequence (P09471 whole entry, looked up): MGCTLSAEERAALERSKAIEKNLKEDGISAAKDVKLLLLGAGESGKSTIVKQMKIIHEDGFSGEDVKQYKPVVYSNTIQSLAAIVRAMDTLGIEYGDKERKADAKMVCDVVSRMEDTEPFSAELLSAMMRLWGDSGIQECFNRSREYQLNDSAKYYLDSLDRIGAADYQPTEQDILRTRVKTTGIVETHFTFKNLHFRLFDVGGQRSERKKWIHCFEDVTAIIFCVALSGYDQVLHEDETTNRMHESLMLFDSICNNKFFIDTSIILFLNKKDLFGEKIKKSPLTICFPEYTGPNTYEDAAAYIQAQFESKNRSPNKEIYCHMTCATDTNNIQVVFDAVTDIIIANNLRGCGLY
PKD1 inh: PKD1 (human) kinase inhibition | PKD1 kinase fluorescence polarization assay | inhibition, %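 (about 10 µM by stock and volumes)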 | 200,000 compounds, 0.056% hits | AID 797;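 active = inhibition of 50% or more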;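 note: controls were vehicle for no effect and a reference inhibitor for full effect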
Insulin prom inh cell count: recorded beside Insulin prom inh, whose call it bears; normalized cell count, %; measured here: cell count, toxicity; reference of the scale not given here;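 cells exposed to compound for 48 h; stained nuclei by imaging scaled within each plate; lower means fewer cells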
HSV replic up primary fold: second read-out of HSV replic up, no call of its own (marks repeat the call); fold increase; compound at 10 µM; measured here: primary screen fold increase 10 uM; tested in PC3 cells;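 GFP signal in the first replicate; 1 = infected wells without compound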
* marks the source's active call; other numbers are inactive results; i = inactive; ? = inconclusive; nt = not tested or not shown.

Sequence of screens: GALR2 agonist	PKD1 inh	HSV replic up	HSV replic up primary fold	RGS16-Gao HTS	Insulin prom inh cell count	Insulin prom inh
> Cc1ccc(NNC(=O)c2ccno2)c(C)c1
→ nt	nt	i	1	109	nt	nt
> Cc1c(/C=N/NC(=O)c2cccnc2)cc(C#N)n1C
→ nt	-10	i	1.1	99	150	-16
> O=C(COC(=O)c1ccc(NS(=O)(=O)c2ccc(F)c(F)c2)cc1)NCC1CCCO1 (configuration not stated)
→ nt	-4	i	0.87	82	nt	nt
> CC1CCCC(C)N1C(=O)COc1ccc(C(=O)Nc2ccccc2N2CCOCC2)cc1 (configuration not stated)
→ nt	-1	i	1	103	nt	nt
> CCOC(=O)c1cnc(-c2ccccc2)[nH]c1=O
→ -1.9	-9	i	1	105	108	0
> C/C(=N\NC(=O)CCCNc1ccccc1)c1ccncc1
→ nt	-1	i	0.92	108	nt	nt
> c1ccc2c(c1)ccc1nnc(-c3ccc4c(c3)OCO4)n12
→ -1.8	-6	i	1	100	100	-8
> COc1ccc(NC(=O)/C(C#N)=C/c2cc(C)n(-c3ccc(N4CCOCC4)c([N+](=O)[O-])c3)c2C)cc1
→ -0.6	14	i	0.94	102	nt	nt
> O=C(CSC1=NCCS1)Nc1ccc(S(=O)(=O)NC2CCCCC2)cc1
→ -1.8	1	i	1.6	101	93	-12
> CCOC(=O)c1cccc(NS(=O)(=O)c2ccc(NC(C)=O)cc2)c1
→ -0.8	0	i	0.84	101	133	10
> CSc1nncc(/C(C)=N\Nc2ccccc2C)n1
→ -3.0	-3	i	0.95	99	139	7
> Cc1nccc(-c2cccc(N/N=C(\C#N)C(=O)c3ccccc3)c2)n1
→ nt	nt	i	0.87	97	nt	nt
> CCn1cc(C(=O)N[C@H](C)c2ccccc2)c(=O)c2cc(F)c(N3CCN(C)CC3)cc21
→ 0.5	-2	i	0.88	101	123	-21
> O=C(NCC1COc2ccccc2O1)c1ccc(Cl)cc1 (configuration not stated)
→ -1.5	-1	i	1	89	nt	nt
> COc1ccc(Oc2c(-c3ccc(O)cc3O)n[nH]c2C)cc1
→ -0.4	2	i	0.97	108	164	-25

Following part
Sequence of screens: GALR2 agonist	PKD1 inh	HSV replic up	HSV replic up primary fold	RGS16-Gao HTS	Insulin prom inh cell count	Insulin prom inh
> COCCN(C(=O)C1CCCC1)c1c(N)n(Cc2ccccc2)c(=O)[nH]c1=O
→ nt	3	i	1.1	107	nt	nt
> O=C(O)CCCC(=O)Nc1ccc(Cl)c(Cl)c1
→ 0.0	-3	i	1	117	nt	nt
> Cc1ccc(S(=O)(=O)CCSc2ccc(C(F)(F)F)cn2)cc1
→ nt	nt	i	0.97	97	nt	nt
> CN(CCC#N)C(=O)COC(=O)c1ccc(Cl)c(S(N)(=O)=O)c1
→ -0.8	5	i	0.85	102	116	-11
> Cc1cc(C(=O)N2CCOCC2)c(C)o1
→ nt	-1	i	0.93	110	116	55
> CCOC(=O)c1cc(-c2cccs2)nc2onc(C)c12
→ -1.9	8	i	1	96	100	43
> CCCc1nc2ccccc2c(C(=O)OC(C)C(=O)NCc2ccc3c(c2)OCO3)c1CC (configuration not stated)
→ -2.2	-1	i	0.9	103	161	-6
> O=C1S/C(=C\c2ccc(N3CCOCC3)o2)C(=O)N1c1ccccc1
→ nt	-8	i	0.98	97	nt	nt
> Cc1cc(C)cc(NC(=O)COC(=O)c2n[nH]c3ccccc23)c1
→ nt	-5	i	0.91	99	nt	nt
> COc1ccc(OC)c(C2Nc3c(Cl)ccc(C(=O)O)c3C3C=CCC32)c1 (configuration not stated)
→ nt	-5	i	1	108	nt	nt
> O=C(NCc1cccnc1)C1CCCN(S(=O)(=O)c2ccccc2)C1 (configuration not stated)
→ -1.4	2	i	0.97	89	109	19
> CCOC(=O)c1nc(N)c(=O)n(-c2ccc(C)cc2)n1
→ -0.6	-9	i	1.1	105	97	-294
> Cn1c(=O)c2nc(Cl)n(Cc3ccc(Cl)cc3Cl)c2n(C)c1=O
→ -2.5	-12	nt	nt	nt	117	-32
> COc1ccc(Cl)cc1S(=O)(=O)n1cnc2ccccc21
→ -0.2	-8	i	0.92	106	nt	nt
> CCOC(=O)C1CCCN(C(=O)COc2ccc(N(C)S(=O)(=O)c3ccc(F)cc3)cc2)C1 (configuration not stated)
→ nt	6	i	0.98	96	73	-69

Later entries:
Sequence of screens: GALR2 agonist	PKD1 inh	HSV replic up	HSV replic up primary fold	RGS16-Gao HTS	Insulin prom inh cell count	Insulin prom inh
> NC(=O)CC[C@@H]1NC(=O)[C@H](Cc2ccc(O)cc2)NC(=O)c2cc([N+](=O)[O-])cc(F)c2OCC[C@@H](C(N)=O)NC1=O
→ -3.1	-4	i	1	102	125	36
> COCCNC(=S)N(c1ccccc1)C(C)C
→ nt	-4	i	1.1	102	99	-12
> CCOC(=O)C1=C(C)Nc2nnnn2C1c1cccnc1 (configuration not stated)
→ -4.2	-1	i	0.98	100	125	23
> CCOC(=O)C(C(=O)OCC)C(=O)c1cc(OC)c(OC)c(OC)c1
→ -1.5	0	i	0.9	79	43	19
> COc1ccc(C2CC(C)(c3ccc(OC)cc3OC)Nc3ccccc3N2)c(OC)c1 (configuration not stated)
→ nt	-4	i	0.81	101	104	-64
> O=C(NNC(=O)c1ccc(O)cc1O)c1ccc(Cl)cc1
→ -2.1	-14	i	0.93	79	102	19
> CCSc1nc2c(c(=O)[nH]c(=O)n2C)n1C/C=C(/C)Cl
→ 1.2	-3	i	0.97	112	nt	nt
> O=C(O)CSc1nc2ccccc2n1-c1ccccc1
→ nt	5	i	0.96	109	nt	nt
> CN(Cc1cc(=O)[nH]c2ccccc12)C(=O)c1ccccc1
→ -2.3	-6	nt	nt	101	98	-9
> O/N=C/c1ccccc1OCc1ccccc1F
→ 0.8	6	i	1	111	114	21
> COc1ccccc1[C@@H]1C(c2cccc(C)c2)=NN(c2ccccc2)[C@H]1C(=O)N1CCOC1=O
→ 3.8	7	i	0.86	133	96	14
> COc1cc(CNc2ccccc2SC)cc(OC)c1OC
→ 0.1	-13	i	1.2	96	101	14
> O=C(CSc1nnc(NC2CCCCC2)s1)Nc1ccc2c(c1)C(=O)c1ccccc1C2=O
→ nt	-2	i	0.81	100	142	-71
> Cc1cnc(NC(=O)CSc2nc3ccccc3c(=O)[nH]2)s1
→ 0.2	0	i	1	100	77	16
> CCOC(=O)C(=NC1CCS(=O)(=O)C1)NNc1ccc(Br)cc1 (configuration not stated)
→ nt	-6	i	1	94	157	8

More entries
Sequence of screens: GALR2 agonist	PKD1 inh	HSV replic up	HSV replic up primary fold	RGS16-Gao HTS	Insulin prom inh cell count	Insulin prom inh
> Cc1ccnc(NC(=O)c2sc3cc(Cl)ccc3c2Cl)c1
→ -0.7	-8	i	1.1	97	nt	nt
> O=C(c1ccccc1)[C@H]1[C@H](c2ccccc2)[C@@]2(N=C(c3ccccc3)OC2=O)C2c3ccccc3C=NN21 (some centres not stated)
→ -2.5	-2	i	0.97	101	98	-24
> CC(C)CCN1C(=O)c2ccc(-c3nc4ccccc4c(=O)o3)cc2C1=O
→ 0.6	-1	i	0.74	113	115	26
> CC1CN(C(=O)COC(=O)c2ccc(Cl)c(S(=O)(=O)N3CCCCC3)c2)CC(C)O1 (configuration not stated)
→ nt	2	i	0.94	104	nt	nt
> COc1ccccc1NS(=O)(=O)c1cccc(NC(=O)c2nc3nc(C)cc(C)n3n2)c1
→ -0.7	7	i	0.85	104	38	-22
> O=c1oc2ccc3ccccc3c2cc1-c1nc2ccccc2o1
→ -0.8	-10	i	0.97	nt	84	38
> Cc1ccc(S(=O)(=O)N2CCOCC2)cc1NC(=O)Cn1cc(C(F)(F)F)cc(Cl)c1=O
→ -2.2	0	i	1	110	95	-46
> O=C(NCC(c1cccnc1)N1CCOCC1)C1CCCCC1 (configuration not stated)
→ 0.1	-1	i	0.88	100	82	35
> COC(=O)C1=C(N)Oc2cc(C)n(C)c(=O)c2C1c1ccc(Cl)c(Cl)c1 (configuration not stated)
→ -1.8	1	i	0.87	102	nt	nt
> COc1ccc(C(C(=O)NCc2ccccc2)N(Cc2cccs2)C(=O)c2cnccn2)cc1 (configuration not stated)
→ -0.4	-5	i	0.83	104	102	-38
> Cc1cc(C)nc(Nc2nc(=O)c3ccccc3s2)n1
→ -3.6	4	i	0.86	34	nt	nt
> O=C(CN(c1ccccc1)S(=O)(=O)c1ccccc1[N+](=O)[O-])Nc1ccccc1C(=O)N1CCOCC1
→ nt	8	i	0.86	111	nt	nt
> COc1cc(OC)nc(NC(=O)NS(=O)(=O)c2ccc(OC(F)(F)F)cc2)n1
→ 0.7	0	i	0.96	101	119	-36
> O=S(=O)(c1ccc(Cl)c2ccccc12)N1CCCC1
→ nt	-1	i	0.87	109	nt	nt
> c1ccc2c(NCC3CCCO3)nc(N3CCOCC3)nc2c1 (configuration not stated)
→ nt	-3	i	0.93	72	78	42

Ordered by value in HSV replic up primary fold (falling): 3 from the list above
SMILES,GALR2 agonist,PKD1 inh,HSV replic up,HSV replic up primary fold,RGS16-Gao HTS
Cc1ccc(S(=O)(=O)N2CCOCC2)cc1NC(=O)Cn1cc(C(F)(F)F)cc(Cl)c1=O,-2.2,0,i,1,110
c1ccc2c(NCC3CCCO3)nc(N3CCOCC3)nc2c1 (configuration not stated),nt,-3,i,0.93,72
CC(C)CCN1C(=O)c2ccc(-c3nc4ccccc4c(=O)o3)cc2C1=O,0.6,-1,i,0.74,113

For convenience, two of the compounds above.
Sequence of screens: GALR2 agonist	PKD1 inh	HSV replic up	HSV replic up primary fold	RGS16-Gao HTS	Insulin prom inh cell count	Insulin prom inh
> CC(C)CCN1C(=O)c2ccc(-c3nc4ccccc4c(=O)o3)cc2C1=O
→ 0.6	-1	i	0.74	113	115	26
> CC1CN(C(=O)COC(=O)c2ccc(Cl)c(S(=O)(=O)N3CCCCC3)c2)CC(C)O1 (configuration not stated)
→ nt	2	i	0.94	104	nt	nt

Further structures follow:
Sequence of screens: GALR2 agonist	PKD1 inh	HSV replic up	HSV replic up primary fold	RGS16-Gao HTS	Insulin prom inh cell count	Insulin prom inh
> CCOc1ccc2nc(N3CCOCC3)nc(C)c2c1
→ 1.5	-2	i	0.99	102	100	-28
> COc1ccc(Cl)cc1NC(=O)CNc1ccccc1N1CCOCC1
→ nt	2	i	0.91	99	135	21
> CCOC(=O)Cc1nnc(NC(=O)c2ccccc2OCC)s1
→ -1.2	1	i	0.96	105	97	-8
> Cc1ccc(C)c(NC(=O)CS(=O)(=O)c2cccc3nsnc23)c1
→ nt	1	i	0.81	105	nt	nt
> Cc1cccc(C)c1OCc1nnc(SCC(=O)Nc2cccc(C(=O)N3CCOCC3)c2)n1C
→ -1.2	12	i	1	29	115	-77
> O=C(CC(C(=O)O)c1ccccc1)Nc1ccccc1 (configuration not stated)
→ -2.1	-3	i	1	119	42	25
> CC(=O)N(C(C)=O)N1C(=O)c2cccc3c(N4CCOCC4)ccc(c23)C1=O
→ nt	-9	?	nt	101	188	25
> COC(=O)c1cc(Cl)c(NC(=O)c2ccco2)cc1OC
→ -5.7	-11	i	1	103	89	-54
> CSc1ncccc1C(=O)OCC(=O)c1ccc(Br)s1
→ nt	-3	i	0.9	117	138	0
> CC1Cc2ccccc2N1C(=O)CCNS(=O)(=O)c1ccc2c(c1)CCC(=O)N2 (configuration not stated)
→ -3.5	-1	i	1.1	98	99	-86
> CCOC(=O)c1ccccc1NCN1C(=O)CSC1=O
→ -1.7	-24	i	0.92	100	145	-4
> Cc1ccc(NC(=S)N(CCN(C)C)Cc2cc3cc(C)cc(C)c3[nH]c2=O)cc1
→ -1.7	3	i	0.81	92	69	30

4 compounds drawn at random from the list so far, as already listed:
Sequence of screens: GALR2 agonist	PKD1 inh	HSV replic up	HSV replic up primary fold	RGS16-Gao HTS	Insulin prom inh cell count	Insulin prom inh
> CSc1ncccc1C(=O)OCC(=O)c1ccc(Br)s1
→ nt	-3	i	0.9	117	138	0
> CC1Cc2ccccc2N1C(=O)CCNS(=O)(=O)c1ccc2c(c1)CCC(=O)N2 (configuration not stated)
→ -3.5	-1	i	1.1	98	99	-86
> CCOc1ccc2nc(N3CCOCC3)nc(C)c2c1
→ 1.5	-2	i	0.99	102	100	-28
> COc1ccc(Cl)cc1NC(=O)CNc1ccccc1N1CCOCC1
→ nt	2	i	0.91	99	135	21

No enrichment for hits. About 1.3% of those tested had a hit in this group.
